Rango-impB inh – inhibitors of Rango-importin beta complex formation | Q14974 | Rango CFP/YFP FRET sensor + importin beta, 45 min | Potency, µM (top dose mostly 92.2 µM), inactives show top-dose inhibition of complex formation | 0.031% of 340,000 active | AID 540263; active = rising FRET ratio curve, often small or poorly fitted; inconclusive = mostly compound fluorescence or quenching in the first reads; inactive = flat curves in all reads;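 further: potency means the concentration at half of the fitted maximal effect; 0% = DMSO wells and 100% = buffer wells lacking importin beta; nearly all actives have a fitted effect of over 15% in size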
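FRET biosensor (snurportin 1 IBB flanked by EYFP and cerulean), 50 nM, with compound 5 min, then 0.125 microM importin beta in PBS, 1 mM DTT, 0.02% Tween-20, 0.1% BSA. CFP/YFP ratio read after 45 min at room temperature; pre-read flags interference.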
Rango release inh – inhibitors of RanGTP-induced Rango-importin beta complex dissociation. Potency, µM (titrated, usually from 46.1 µM), without a hit: at the top dose activity change, negative = inhibition. Biochemical FRET Rango-importin beta, RanGTP-induced dissociation. AID 540253. 0.071% of 340,000 active. O95149+P62826; active means falling FRET ratio curve, often poorly fitted, with flat reads before Ran was added; inconclusive means other falling curves, or compound fluorescence or quenching; inactive means flat or rising ratio curve;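 further: potency means the concentration at half of the fitted maximal effect; % of control where 0% means no effect; nearly all actives have a fitted effect of over 45% in size; -100% = wells without RanGTP and RCC1; the record marks most hits as doubtful in a second field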
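Compounds sat 5 min at room temperature with 0.1 uM Rango biosensor plus 0.25 uM importin beta, then FRET pre-read. RanGTP-RCC1 (0.6 uM Ran, 2mM GTP, 0.2 uM RCC1) added for 45 min, and the CFP/YFP post-read measured blocked complex dissociation.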
GLA inh pH 4.5 – alpha-galactosidase A (human) inhibition, pH 4.5; AID 1467; P06280; purified enzyme, 4-MU-alpha-Gal fluorescence, pH 4.5; activity change, negative = inhibition, % at 105 µM; 230,000 tested, under 10 active; inconclusive = small, poorly fitted or top-dose-only inhibition, or a rising curve; inactive = flat fitted curve, though single readings scatter; no compound was filed as active;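 further: 0% = full activity with enzyme and -100% = basal without enzyme; dose as in the result columns while the protocol names 77 µM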
Target sequence (P06280 whole entry, looked up): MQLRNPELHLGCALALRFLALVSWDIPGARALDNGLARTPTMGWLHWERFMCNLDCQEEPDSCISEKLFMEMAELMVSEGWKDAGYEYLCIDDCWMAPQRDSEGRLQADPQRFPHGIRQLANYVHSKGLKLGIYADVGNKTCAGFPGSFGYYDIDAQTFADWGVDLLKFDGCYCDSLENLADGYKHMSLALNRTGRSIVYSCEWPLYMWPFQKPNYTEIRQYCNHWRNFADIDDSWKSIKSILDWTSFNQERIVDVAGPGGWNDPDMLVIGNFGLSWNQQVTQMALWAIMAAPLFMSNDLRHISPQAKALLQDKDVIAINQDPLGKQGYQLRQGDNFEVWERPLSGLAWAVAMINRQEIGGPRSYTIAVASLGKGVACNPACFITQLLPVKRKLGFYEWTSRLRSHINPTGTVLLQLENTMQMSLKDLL
miR-21 reporter – miR-21 reporter, rising signal | 340,000 tested, under 10 active | HeLa miR-21 FLuc reporter, luciferase, 48 h | Potency, µM (top dose mostly 38.3 µM), without a hit: top-dose reporter change, positive = more light | AID 2288; active = well fitted rising curve with a large enough effect; inconclusive = small, poorly fitted or top-dose-only effect; inactive = no such curve, though single readings can be large or run the other way;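 further: % of control where 0% means no effect; miR-21 action dims this reporter so a rising signal means less miR-21 action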
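HeLa miR-21-FLuc reporter line, endogenous miR-21; 2000 cells/well in DMEM/10% FBS; compound titration up to ~40uM final, 48 h, 37 degree Celsius; luciferase detection reagent, 15 min lysis, CCD luminescence.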
* hit, by the source's call; ? = inconclusive; nt = not tested or not shown; & = joins results of further samples. Only part of the results is shown; the hit share may differ from the screen's.

SMILES | Rango-impB inh | Rango release inh | GLA inh pH 4.5 | miR-21 reporter
COC(=O)c1cccc(OC(N)=O)c1 | 0.2% | 1% | 5 | -4%
COc1ccc(C)cc1S(=O)(=O)N(CC(=O)Nc1cc([N+](=O)[O-])ccc1C)c1ccc(C)c(C)c1 | -0.1% | 0% | -3 | 0%
CCC1CCCCN1C(=O)CCn1ccnc1 (stereo unspecified) | 1.1% | 1% | 1 | -3%
Cc1ccc(-c2c3c(=O)n(C)c(=O)n(C)c3cn2-c2ccccc2O)cc1 | 2.2% | 3% | -9 | -7%
COc1ccc2ccccc2c1/C=N/NC(=O)c1cc(C)[nH]n1 | -3.8% | -14% | nt | -1%
CCN(CC(=O)NCc1ccc(Cl)cc1)C(=O)COc1ccc(C)cc1C | -1.0% | -6% | nt | 4%
O=S(=O)(Nc1ccc(N2CCOCC2)cc1)c1ccc(F)cc1F | -3.2% | -6% | -7 | -6%
CNc1c(NC(=O)c2ccc3c(c2)OCO3)c(=O)oc2ccccc12 | 4.2% | 18% | nt | -1%
CC(Oc1cccc(Br)c1)C(=O)N1CCCN(C)CC1 (stereo unspecified) | 2.1% | -1% | nt | -1%
Cc1cc2oc(=O)cc(-c3ccccc3)c2c(C)c1-c1ccc(CO)cc1 | -0.3% | 0% | -11 | nt
COc1ccc2c(C)cc(C)nc2n1 | 1.1% | -1% | -1 | -3%
CCOc1ccccc1OCC(=O)Nc1ccc(N2CCOCC2)cc1N1CCOCC1 | 2.2% | -2% | nt | nt
Cc1ccc(NC2c3ncccc3C(=O)N2C2CCCCC2)cc1 (stereo unspecified) | -0.7% | -5% | 3 | -1%
COC(=O)c1c[nH]n2c(=O)cc(CCl)nc12 | 2.2% | -10% | 0 | 0%
CC1(C)CC(=O)C2=C(C1)OC(/N=C/N1CCOCC1)=C(C#N)C2c1ccccc1 (stereo unspecified) | -1.2% | -5% | -5 | 3%
CCc1ccccc1NC(=O)CCNS(=O)(=O)c1ccc2c(c1)CCC(=O)N2 | 0.0% | 10% | nt | -6%
O=C(CCc1ccccc1)C(=O)N1CCCC(C(=O)c2cccc(Cl)c2)C1 (stereo unspecified) | 0.8% | 0% | -4 | -11%
NC(=O)NC(=O)COC(=O)CN1C(=O)C2CCCCC2C1=O (stereo unspecified) | 3.4% | 10% | -1 | -1%
Cc1c(NC(=O)COC(=O)Cc2ccc(F)cc2)c(=O)n(-c2ccccc2)n1C | -1.8% | 26% | nt | nt
Cc1nn2c(=O)cc(COC(=O)c3ccc(NC(=O)C(C)(C)C)cc3)nc2s1 | -1.5% | 3% | nt | 0%
O=C(CCSc1ccc(F)cc1)Nc1ccc(-n2cnnn2)cc1 | ? | 5% | 1 | -2%
O=S(=O)(NC1C2CC3CC(C2)CC1C3)c1ccccc1 (stereo unspecified) | 0.6% | 1% | nt | nt
CN1CC(=O)Nc2ccc(F)cc2C1=O | -2.3% | 13% | 7 | -3%
O=C(CC1SCCNC1=O)Nc1ccc(F)c(Cl)c1 (stereo unspecified) | -5.8% | -19% | -1 | -14%
O=C(CN1CCCC1)Nc1ccc(S(=O)(=O)N2CCCCC2)cc1 | 1.7% | 19% | nt | 0%
Remaining list, next part
SMILES | Rango-impB inh | Rango release inh | GLA inh pH 4.5 | miR-21 reporter
CNC(=S)/N=C/NOCc1ccc(Cl)cc1Cl | -2.5% | 2% | -7 | ?
O=C(Nc1nnc(S(=O)(=O)N2CCOCC2)s1)c1ccc(F)cc1 | -2.0% | -14% | nt | -16%&-11%
COc1ccccc1N1CCN(C(=O)CN(c2ccc(C)c(C)c2)S(C)(=O)=O)CC1 | -1.3% | -9% | -1 | -1%
Cc1ccnc(NC(=O)CNC(=O)c2ccco2)c1 | -1.0% | 13% | nt | nt
O=C(Nc1ccccc1)Nc1ccccc1-n1ccnc1 | -0.1% | -15% | 7 | -8%
O=[N+]([O-])c1ccc(COc2ccccc2CN2CCCCC2)cc1 | -0.1% | 7% | nt | nt
COC(=O)/C=C1\OC(c2ccccc2)=CC1=O | nt | nt | -4 | -11%
CCN1C(=NCCc2cccs2)N[C@@H](c2cccs2)C(C(=O)OC)=C1C | ? | -11% | nt | 13%
CC1(C)C([N+](=O)[O-])C(c2ccc(O)cc2)NC(c2ccc(O)cc2)C1[N+](=O)[O-] (stereo unspecified) | -0.1% | 7% | 0 | 6%
O=C(Cn1cncn1)N/N=C/c1c2ccccc2cc2ccccc12 | ? | ? | 2 | -14%
CCCCC[C@@H]1C=C(C(=O)O)[C@H](c2ccc(F)cc2)N1S(=O)(=O)c1ccc(C)cc1 | -1.9% | 20% | nt | nt
CC(=O)c1nn(-c2ccc(Br)cc2)cc1C(=O)c1ccccc1 | -1.1% | 12% | 3 | 3%
Cc1ccc(-n2ncc3c(=O)[nH]c(SCC(=O)N4CCOCC4)nc32)cc1 | ? | 11% | -8 | -4%
COc1ccc(/C=C/C(=O)Nc2cc(C)nn2-c2nc3ccccc3[nH]2)cc1 | -3.4% | -3% | -2 | -43%
CCC1CN(C(=O)N2CCC(C(=O)NCCc3ccc(OC)cc3OC)CC2)c2ccccc2O1 (stereo unspecified) | 3.2% | 18% | nt | -1%
CCOc1ccc(CCNC(=O)CCc2nc3ccccc3[nH]2)cc1OCC | -9.1% | 21% | 1 | -2%
CC1=NNC(=O)C1CC(=O)N/N=C/c1ccncc1 (stereo unspecified) | 0.2% | -5% | -2 | 0%
CCC(CC)C(=O)OCC(=O)Nc1ccc(S(=O)(=O)N2CCOCC2)cc1OC | -6.9% | -2% | -2 | -2%
CCCOc1ccc(CN(C)c2ncnc(N)n2)cc1 | 2.3% | -13% | nt | -11%
CC(C(=O)Nc1ccccc1)N1CCN(c2ccccn2)CC1 (stereo unspecified) | -1.3% | 4% | nt | -3%
Cc1ccc(NCN2C(=O)C3C4C=CC(C4)C3C2=O)cc1 (stereo unspecified) | 0.7% | 2% | -3 | -4%
Cc1ccccc1C(OCC(O)CN1CCC(C(N)=O)CC1)c1ccccc1 (stereo unspecified) | ? | ? | nt | -3%
CC(C)[C@H](NS(=O)(=O)/C=C/c1ccccc1)C(=O)OCC(=O)NC(N)=O | -0.4% | 2% | 8 | 2%
COc1ccc(CCNC(=O)c2cc([N+](=O)[O-])ccc2N2CCOCC2)cc1 | -3.2% | 6% | nt | nt
Cc1ccc(S(=O)(=O)N(C)C)cc1NC(=O)CSc1ncn[nH]1 | 0.8% | 1% | nt | -2%
The list continues:
SMILES | Rango-impB inh | Rango release inh | GLA inh pH 4.5 | miR-21 reporter
CC(CO)Nc1nc(SCc2ccccc2)nc2sc3c(c12)CCC3 (stereo unspecified) | -2.3% | -15% | -7 | -41%
CCOC(=O)c1ccc2c(c1)n(CCO)c(C)[n+]2CC | -0.7% | 2% | -12 | -2%
CCN(CC)CCNC(=O)Cc1nn(CC)c(=O)c2ccccc12 | -0.4% | 12% | 3 | -3%
Cc1cccc(Cl)c1NC(=O)N1CCCN(c2nc3ccc(Cl)cc3s2)CC1 | 0.1% | -10% | ? | 22%
CC(=O)Nc1ccccc1-c1nc2ccccc2nc1OCC(=O)c1ccc(Br)cc1 | 0.0% | -3% | 5 | 0%
CCCCOc1ccc(OCCNS(=O)(=O)N(C)C)cc1 | 3.6% | 3% | -3 | -4%
CCOC(=O)c1sc(=S)n(C)c1NC(=O)c1ccc(F)cc1 | -0.2% | 5% | -5 | 7%
Cc1cccc(C)c1N(CC(=O)Nc1cc(Cl)ccc1Oc1ccccc1)S(C)(=O)=O | ? | 0% | -7 | 8%
CC(=O)Nc1ccc(OCC=C(Cl)Cl)cc1 | 1.4% | 12% | 8 | -26%
Cc1ccc(-n2cccc2/C=C2/C(=N)N3C(=NC2=O)SN=C3S(C)(=O)=O)cc1 | ? | -23% | 0 | -1%
N#CCCN(C(=O)COC(=O)COc1ccc(Cl)cc1)c1ccccc1 | -0.1% | -1% | 3 | 1%
CCC(C)NC(=O)CN1c2cccc3cccc(c23)S1(=O)=O (stereo unspecified) | 1.7% | -9% | nt | -1%
CCc1cccc2c(C(=O)CN3C(=O)NC4(CCc5ccccc54)C3=O)c[nH]c12 (stereo unspecified) | -0.5% | 0% | nt | nt
CCOC(=O)/C(=C/c1c[nH]c2ccccc12)NC(C)=O | ? | 1% | 9 | 1%
CC(O)CNc1nc(NCc2ccccc2)c2cnn(C)c2n1 (stereo unspecified) | 0.4% | -5% | nt | 0%
O=C(CCCn1c(=O)c2sccc2n(Cc2cc(=O)n3ccccc3n2)c1=O)NCc1ccco1 | 1.7% | -1% | -8 | -4%
CCOC(=O)c1sc2nccc(N(C)C)c2c1N=CN(C)C | -3.7% | -21% | 1 | -2%
COc1ccc(CN2C(=O)CCC2(C)C(=O)NC2CCCCC2)c(OC)c1 (stereo unspecified) | -2.5% | -8% | 1 | -1%
c1ccc(-c2cc(-c3ccc(N4CCOCC4)cc3)nc3ccccc23)cc1 | ? | -24% | 0 | -35%
COc1cc(/C=C/CN2CCN(CCC(C)C)C(CCO)C2)ccc1O (stereo unspecified) | -3.3% | -9% | 11 | -1%
C#CCn1c(=NC(=O)c2ccc(Br)s2)sc2cccc(OC)c21 | -2.3% | -3% | 8 | -29%
Cc1nn(-c2ccc(C(F)(F)F)cn2)c(C)c1Oc1ccccc1O | 1.7% | 2% | -4 | 7%
COc1cccc(OC)c1C(=O)Nc1nc2ccc([N+](=O)[O-])cc2s1 | -0.8% | -13% | nt | 2%
Fc1ccc(NC(=S)NCc2ccccc2Cl)cc1 | -1.0% | 1% | -1 | -6%
Cc1ccc(NC(=O)Cc2nnc(SCC(=O)Nc3nncs3)n2C)cc1 | 0.8% | -20% | nt | 8%
Next section.
SMILES | Rango-impB inh | Rango release inh | GLA inh pH 4.5 | miR-21 reporter
Fc1ccc2cnc(CCO[C@H]3CCCCO3)cc2c1 | -0.8% | 1% | nt | nt
CC(C)C[C@H](N)C(=O)N1CCC(C(=O)N[C@H](C(=O)NC(C)c2ccccc2)C(C)C)CC1 (stereo partly specified) | 4.5% | -7% | nt | -4%
S=C1NCN(C2CCCCC2)CN1CCc1ccccc1 | 1.2% | 0% | 0 | 4%
Cc1cc(C)c(S(=O)(=O)N(C)CC(=O)NCc2ccncc2)c(C)c1 | ? | -7% | 8 | -2%
S=C(N/N=C/c1ccc2ncccc2c1)Nc1ccccc1 | -0.3% | 14% | 2 | -35%
O=C(c1ccco1)N1CCCC(c2nc3c(nnn3Cc3cccc(Cl)c3)c(=O)[nH]2)C1 (stereo unspecified) | -0.9% | -17% | nt | -9%
CCOc1ccccc1N1CC(C(=O)Nc2cc(Cl)ccc2-n2cncn2)CC1=O (stereo unspecified) | -0.5% | -11% | nt | nt
Cc1ccc2c(c1)CC(C)N2S(=O)(=O)c1nnc(NC(=O)CC(C)C)s1 (stereo unspecified) | 0.7% | 4% | nt | 2%&-20%
Cc1cccc(C(=O)NCC(=O)NC2CCC(C)CC2)c1 (stereo unspecified) | -1.7% | -5% | nt | nt
COc1ccc(CCNC(=O)C2CCCN(c3ncccn3)C2)cc1 (stereo unspecified) | 4.3% | 5% | 3 | 1%
O=C1C2CC(O)CN2C(=O)N1c1ccccc1 (stereo unspecified) | -1.2% | 9% | -20 | 0%
O=C(O)/C=C\C(=O)NCc1ccccc1 | 5.5% | 4% | -10 | 0%

A stretch from further up:
SMILES | Rango-impB inh | Rango release inh | GLA inh pH 4.5 | miR-21 reporter
Fc1ccc2cnc(CCO[C@H]3CCCCO3)cc2c1 | -0.8% | 1% | nt | nt
CC(C)C[C@H](N)C(=O)N1CCC(C(=O)N[C@H](C(=O)NC(C)c2ccccc2)C(C)C)CC1 (stereo partly specified) | 4.5% | -7% | nt | -4%
S=C1NCN(C2CCCCC2)CN1CCc1ccccc1 | 1.2% | 0% | 0 | 4%
Cc1cc(C)c(S(=O)(=O)N(C)CC(=O)NCc2ccncc2)c(C)c1 | ? | -7% | 8 | -2%
S=C(N/N=C/c1ccc2ncccc2c1)Nc1ccccc1 | -0.3% | 14% | 2 | -35%
O=C(c1ccco1)N1CCCC(c2nc3c(nnn3Cc3cccc(Cl)c3)c(=O)[nH]2)C1 (stereo unspecified) | -0.9% | -17% | nt | -9%
CCOc1ccccc1N1CC(C(=O)Nc2cc(Cl)ccc2-n2cncn2)CC1=O (stereo unspecified) | -0.5% | -11% | nt | nt

Screens: PubChem, National Center for Advancing Translational Sciences (NCATS)
